# Bioassay records as filed in PubChem.
# A1 inh – caspase 3/7 activation in MEF A1-2A-BIM cells, primary screen, A1 inhibitor project, cell-based, luminescence, HTS; AID 2462, 2010; hit rate 0.066% among 330,000; Caspase-Glo 3/7 luminescence, 3 h; percent of clofoctol response, vehicle zero; caspase activation, % (concentration not given with the values);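 active = over half of replicate activation scores above 10%, or exactly half above 10 with the replicate mean above 10; inconclusive = replicate mean below 10 yet half the replicates above 10; inactive = over half of replicates below 10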;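 also: wells of about 30 µL received 50 nL stock; many hits fall short of the cut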
# RanGTP-Imp inh – inhibitors of RanGTP-importin-beta interaction, primary screen, biochemical, FRET, CFP-Ran, YFP-importin-beta, homogeneous; inhibition, % (concentration not given with the values); cell-free CFP-Ran/YFP-importin-beta FRET ratio; AID 2216, 2009; hit rate 1.1% among 300,000; Ran GTPase (GTP-bound) - importin-beta complex;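 active = most replicates above 15%; inconclusive = exactly half above 15%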;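 also: 0% = DMSO wells and 100% = Ran loaded with GDP instead of GTP; wells of about 40 µL received 100 nL stock; the first replicate is given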
# MLL AF4-AF9 inh – inhibitors of AF4 peptide binding to AF9, primary screen, biochemical, AlphaScreen, biotin-AF4 peptide, FLAG-AF9, single point | AID 651704, 2012 | Protein AF-9 (Homo sapiens), P42568 | inhibition, % at 10 µM | hit rate 0.47% among 350,000;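 active = every replicate reaching a set inhibition limit, whatever the replicate mean, cut at about 25% in these data; inconclusive = mean inhibition reaches that limit but some replicates miss it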;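 also: 0% = plate neutral control median and 100% = total signal loss; the record names both 10 and 1 µM as test concentration; the first replicate is given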
# Target sequence (P42568 whole entry, looked up): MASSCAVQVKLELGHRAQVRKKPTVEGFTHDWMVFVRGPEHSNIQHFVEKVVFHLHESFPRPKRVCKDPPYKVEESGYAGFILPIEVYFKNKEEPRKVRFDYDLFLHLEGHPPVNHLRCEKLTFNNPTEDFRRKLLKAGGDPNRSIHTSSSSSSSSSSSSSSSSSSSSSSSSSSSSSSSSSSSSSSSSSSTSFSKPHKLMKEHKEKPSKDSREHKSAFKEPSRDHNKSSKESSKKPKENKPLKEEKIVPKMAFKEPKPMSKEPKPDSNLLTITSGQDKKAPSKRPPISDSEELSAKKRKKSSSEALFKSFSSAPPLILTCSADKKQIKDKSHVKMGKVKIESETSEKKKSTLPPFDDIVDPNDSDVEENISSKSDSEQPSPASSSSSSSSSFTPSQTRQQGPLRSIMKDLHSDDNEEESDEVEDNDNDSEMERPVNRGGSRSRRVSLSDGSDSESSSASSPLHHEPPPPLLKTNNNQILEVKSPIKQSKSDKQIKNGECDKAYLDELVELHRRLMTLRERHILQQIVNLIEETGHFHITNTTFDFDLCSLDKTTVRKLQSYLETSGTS
# Calb FLC – C. albicans growth inhibition with fluconazole, primary screen, CaCi-2 strain, Alamar Blue fluorescence | C. albicans CaCi-2 (fluconazole-resistant clinical isolate) + fluconazole, 48 h | growth inhibition, % (no concentration beside the values) | hit rate 0.57% among 300,000 | AID 1979, 2009;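 active = most replicates above 75%; inconclusive = exactly half above 75%; inactive = most below 75%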;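 also: all wells also contain fluconazole at 8 µg/ml as a sub-toxic cotreatment; 0% = median of DMSO wells and 100% = median of geldanamycin control wells; wells of about 8 µL received 7.5 nL stock; the first replicate is given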
# Vif TR-FRET – inhibitors of Vif binding to APOBEC3G peptide, primary screen, biochemical, TR-FRET, GST-Vif 1-94, biotin-A3G peptide, dose response retest (AID 1117319) | Virion infectivity factor (Human immunodeficiency virus type 1 group M subtype B (isolate … | TR-FRET GST-Vif / biotin-A3G peptide binding; higher % means a stronger effect; test concentration not given here; strong numbers were not always called active | one-dose inhibition, %; IC50 in µM for titrated hits | hit rate 0.57% among 260,000;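 active = above the screen mean plus three standard deviations and confirmed in dose response; inconclusive = results disagree or hit not tested in dose response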;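 also: Vif residues 1-94 fused to GST binding biotinylated APOBEC3G peptide 110-148; 0% = full assay without inhibitor and 100% = GST in place of GST-Vif; retest series ran down from 100 µM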
# T cruzi repl – inhibitors of intracellular T. cruzi growth, primary screen, luminescence, NIH3T3 host cells; T. cruzi beta-gal in NIH3T3, 90 h; inhibition, % (test concentration not listed); hit rate 1.4% among 300,000; AID 1885, 2009;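 active = mean inhibition across valid replicates above about 55%, limit read from the data; inconclusive = mean below that limit but half or more replicates reach it; inactive = mean below it, under half of replicates reach it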;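 also: signal also drops with host cell toxicity which is not excluded here; 0% = plate median of DMSO wells and 100% = zero luminescence signal; higher percent means less beta-gal luminescence so fewer parasites; stock transfer was 50 nL into about 50 µL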
# Beta apoptosis – inhibitors of cytokine-induced beta cell apoptosis, primary screen, luminescence | AID 435005, 2010 | hit rate 0.8% among 300,000 | INS-1E cytokine-induced death, ATP luminescence, 48 h; percent of positive-control rescue, neutral wells zero | protection from apoptosis, % (no concentration beside the values);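 active = all replicates at 75% or more, or half of them and the mean; inconclusive = half reach 75% but not the mean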;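 also: 0% = cytokine-treated negative control wells and 100% = positive control rescue; higher means more ATP so stronger rescue from cytokine killing; wells of about 40 µL received 100 nL stock; the first replicate is given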
# LANA-H2A inh – blockers of LANA interaction with H2A/H2B – biochemical, FP readout, HTS, primary screen; Protein LANA1 (Human herpesvirus 8 type P (isolate GK18)), Q9QR71; cell-free LANA-H2A/H2B peptide, fluorescence polarization; inhibition, % (concentration not given with the values); hit rate 0.6% among 320,000; in the data active = inhibition mostly above about 10%, no sharp cut-off; inactive = mostly below about 6.7%;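 also: stock transfer was 7.5 nL into about 10 µL; 0% = median of vehicle wells and 100% = median of positive control wells; one replicate is shown; the record names a cut of 25% in any replicate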
# Starred values were filed as active, the others as inactive; ? = inconclusive; nt = no result given; & = joins results of further samples.
smiles	A1 inh	RanGTP-Imp inh	MLL AF4-AF9 inh	Calb FLC	Vif TR-FRET	T cruzi repl	Beta apoptosis	LANA-H2A inh
C=C1c2ccccc2NC(=O)N1c1ccc(C)cc1	-4.9	?	nt	-6	8%	-20	-3	2.0
CCN(CC(=O)NCc1ccc(F)cc1)CC(=O)Nc1cc(S(=O)(=O)N(C)C)ccc1C	-0.9	nt	-2.1	nt	9%	nt	-5	-5.5
O=C(O)CCC(=O)Nc1cccc(-c2csc(-c3ccccc3)n2)c1	0.4	?	-1.0	-3	-12%	-11	-1	-1.0
CC(=O)c1c[nH]c(C(=O)Nc2ccc(N3CCCCCC3)cc2)c1	-0.3	nt	4.9	nt	-7%	nt	4	3.6
CC(C)CCn1nc(C(=O)OC(C)C(=O)NC(N)=O)c2ccccc2c1=O (stereo not drawn)	-0.7	2.1	nt	4	1%	-3	-5	-3.6
C=CCSc1nc2c(c(=O)[nH]c(=O)n2C)n1Cc1ccccc1	0.1	-2.2	-1.3	-11	nt	1	2	-0.5
CC(CN1CCOCC1)OC(=O)Cc1ccc(Cl)cc1 (stereo not drawn)	-0.7	-0.7	-1.4	-1	-8%	-6	-4	1.0
Cc1cc(C(=O)N/N=C/c2sc(N3CCOCC3)nc2-c2ccccc2)c(C)o1	-0.5	-1.1	3.7	1	-3%	49	5	2.0
Cc1ccc(-c2csc3n[nH]c(=S)n23)cc1	0.8	1.9	nt	12	-6%	-1	-4	-1.5
O=C(CNC(=O)c1cccs1)NCC(=O)OCc1ccccc1Cl	0.1	0.5	4.9	-2	-5%	-8	nt	-2.9
CNc1oc(-c2cccs2)nc1C#N	0.3	0.1	nt	6	5%	24	3	10
CN(C)C(=O)c1coc2nc3ccccc3nc12	-7.4	1.0	-0.4	29	0%	-23	-11	-2.7
CCN(CC)S(=O)(=O)c1ccc(C(=O)NCC2CCCCC2)cc1	0.4	0.4	-2.2	-6	nt	-17	-3	0.0
COCCNC(=O)C(c1c[nH]c2ccccc12)N(C(=O)c1snc(C(N)=O)c1N)c1cccc(OC)c1 (stereo not drawn)	-1.0	2.0	-0.1	2	nt	-8	2	7.4
CCOc1ccc(CCNc2nc3ccccc3n3cnnc23)cc1OCC	0.2	4.8	2.3	24	16%	-6	1	2.7
Cc1c(NC(=O)CN(c2ccc(F)cc2)S(=O)(=O)c2ccccc2)c(=O)n(-c2ccccc2)n1C	-0.1	2.7	1.3	-1	2%	-17	0	-13
COc1cc(S(=O)(=O)Nc2ccccc2)ccc1NC=O	1.4	-1.0	nt	-1	1%	1	-3	-4.2
O=C(CCCCn1c(=O)c2ccccc2n(CC(=O)NC2CCCC2)c1=O)NCc1ccco1	2.4	0.6	nt	-3	5%&-2%	-8	-2	2.2
CC(=O)NC(=S)Nc1ccc(NC(=O)COc2ccc(Cl)cc2)cc1	-0.6	3.0	nt	43	3%	-9	-2	-4.1
O=c1cc(CN2CCN(c3ccccc3F)CC2)c2cc(O)c(-c3ccccc3)cc2o1	0.5	1.4	-2.0	25	2%	8	-4	-3.5
O=C(CCCNC(=O)/C(=C\c1ccc(F)cc1)NC(=O)c1ccccc1)OCc1ccccc1	-0.4	-0.5	nt	6	2%	-7	-3	-0.1
CC(Oc1ccccc1F)C(=O)NNC(=O)CC(C)c1ccccc1 (stereo not drawn)	0.7	nt	-1.6	3	0%	1	2	4.1
Cc1cc(C)n(CCN(C)C(=O)CCc2nnc(-c3ccc4c(c3)OCO4)o2)n1	-0.5	1.5	-6.1	26	7%	-10	-10	1.3
Cc1ccc(C(=O)Nc2ncccc2C)cc1S(=O)(=O)N1CCOCC1	0.4	nt	-14	nt	-3%	nt	3	3.5
CCc1ccc(C(=O)NC(C(=O)NCC2CCCO2)C(C)C)cc1 (stereo not drawn)	-0.5	0.8	-2.5	-6	1%	-19	-2	-1.5
O=C(N=C1SC2CS(=O)(=O)CC2N1c1ccc(F)c(Cl)c1)C1CC1 (stereo not drawn)	-0.3	2.6	-11	6	nt	0	3	-2.8
CCOC(=O)C1CCCN(C(=O)c2cc3c(-c4cccc(OC)c4)nn(C)c3s2)C1 (stereo not drawn)	0.3	-0.8	nt	nt	-2%	14	nt	3.6
COc1ccc(N(CC(=O)NCCSCc2ccco2)S(=O)(=O)c2ccc(C)cc2)cc1	-0.1	-0.3	-0.6	5	-2%	22	5	-1.6
CC(C)C(=O)OC1CCS(=O)(=O)c2sccc21 (stereo not drawn)	2.1	6.5	2.2	23	-5%	-7	0	2.0
CCOc1cc(C(=O)NC(=S)Nc2nc(C)cc(C)n2)cc(OCC)c1OCC	1.1	0.3	-0.4	8	1%	5	-10	-1.5
CC(=O)Nc1ccc(S(=O)(=O)NC(C(=O)O)C(C)O)cc1 (stereo not drawn)	0.1	0.9	-3.1	-10	-9%	8	-1	2.0
CN1CC(=O)N(CC(=O)Nc2ccc(N(C)C)cc2)c2ccccc2C1=O	-0.2	1.5	nt	4	4%	-11	5	-1.2
CC1CCN(C2(O)C(=O)Nc3ccc([N+](=O)[O-])cc32)CC1 (stereo not drawn)	1.9	7.5	nt	-1	0%	1	-12	2.0
COc1ccc(/C(N)=N/OC(=O)c2ccc(C)c([N+](=O)[O-])c2)cc1	0.2	3.2	nt	2	7%	6	-3	0.6
COc1cc(OC)cc(C(=O)NCC(=O)Nc2ccc(C)c(Cl)c2)c1	0.5	2.5	-5.7	0	3%	-1	2	1.6
COc1cc(OC)c(C(=O)Nc2cccnc2)cc1OC	0.2	3.5	-6.3	17	nt	-3	nt	2.7
COc1ccc(S(=O)(=O)N(CC(=O)N2CCN(c3ccccc3OC)CC2)c2ccccc2)cc1	0.1	nt	nt	nt	-8%	nt	3	0.7
Brc1cccc(-c2nc(-c3ccncc3)no2)c1	-5.0	-5.3	nt	-4	4%	31	-6	-2.8
O=C(O)CCC(=O)N1N=C(c2ccccc2)CC1c1cccs1 (stereo not drawn)	-0.3	-0.5	8.7	7	nt	-7	1	0.6
O=C(COC(=O)c1cc([N+](=O)[O-])ccc1NCCO)c1ccccc1	-0.3	3.4	6.8	0	nt	-15	-12	8.2

# 2 successive entries out of the list so far, for reference:
smiles	A1 inh	RanGTP-Imp inh	MLL AF4-AF9 inh	Calb FLC	Vif TR-FRET	T cruzi repl	Beta apoptosis	LANA-H2A inh
O=C(O)CCC(=O)N1N=C(c2ccccc2)CC1c1cccs1 (stereo not drawn)	-0.3	-0.5	8.7	7	nt	-7	1	0.6
O=C(COC(=O)c1cc([N+](=O)[O-])ccc1NCCO)c1ccccc1	-0.3	3.4	6.8	0	nt	-15	-12	8.2

# (cont.)
smiles	A1 inh	RanGTP-Imp inh	MLL AF4-AF9 inh	Calb FLC	Vif TR-FRET	T cruzi repl	Beta apoptosis	LANA-H2A inh
CCCn1c(=N)n(CC(O)COc2ccc(C)cc2)c2ccccc21 (stereo not drawn)	-0.7	-0.9	2.8	-5	-14%	6	10	3.1
COc1cnc(-c2ccccn2)nc1Sc1ccc(Cl)cc1	0.3	3.6	nt	-3	5%	19	12	4.5
Cc1cc(C)nc(/N=C(/NC(=O)c2ccccc2)Nc2ccccc2)n1	0.8	2.1	nt	-1	1%	-5	-1	2.7
CC(/C=N/NC(=O)c1cc(C(C)C)[nH]n1)=C\c1ccccc1	0.5	4.3	-3.2	34	?	-17	3	1.2
COc1ccc(NC(=O)CN(C)C(=O)CCNS(=O)(=O)c2ccc(Br)cc2)cc1	-0.1	0.2	-0.1	4	nt	2	0	9.1
Cc1ccc(Cl)cc1NS(=O)(=O)Cc1ccccc1	0.3	3.2	-1.9	-63	nt	-10	-5	5.1
COCCNC(=O)C(=O)NNS(=O)(=O)c1ccc2ccccc2c1	-1.0	-3.8	-3.9	-10	0%	-21	1	8.0
CCN1CCN(CC(=O)Nc2c(OC)cccc2OC)CC1	-0.3	3.5	-18	3	-1%	9	-8	0.6
CN(C)c1ccc2c3c(cccc13)C(=O)N(c1ccccc1)C2=O	0.0	-32	nt	-4	-2%	-22	-2	0.1
COc1cccc(C(=O)NC(C)CCc2ccccc2)c1 (stereo not drawn)	0.3	2.9	4.9	13	nt	-28	-2	0.4
CC1CCCCN1C(=O)CSc1ccc(-c2ccc(F)cc2)nn1 (stereo not drawn)	-4.0	?	nt	-12	9%	17	-1	1.1
O=C(CCCN1C(=O)/C(=C\c2ccccc2)SC1=S)Nc1ccc(O)cc1	-0.3	0.3	12	31	8%	46	-32	1.0
CCCCn1c(N)c(N(CC(C)C)C(=O)CN2C(=O)NC3(CC(C)CC(C)(C)C3)C2=O)c(=O)[nH]c1=O (stereo not drawn)	-0.1	3.2	-3.0	5	-9%	3	-1	-2.7
CCC(C)(C)NC(=O)C(c1ccco1)N(C(=O)CNC(=O)c1cccs1)c1cccnc1 (stereo not drawn)	0.8	1.5	nt	0	4%	4	nt	1.0
CN1C(=O)c2ccc(C(=O)NCc3ccco3)cc2C1=O	0.2	1.6	1.4	-5	-4%	-11	-2	5.8
COc1ccc(N2CCN(CCCNS(=O)(=O)c3ccc4c(c3)oc(=O)n4C)CC2)cc1	0.5	1.5	10	2	3%	16	-7	1.8
COc1ccc(N(Cc2ccccc2)C(=O)c2ccccc2[N+](=O)[O-])cc1	0.7	0.3	2.5	-15	?	28	1	-1.7
c1cncc(-c2nc3ccccn3c2Nc2ccc3c(c2)OCCO3)c1	0.1	3.5	17	1	4%	9	2	-1.9
COC(=O)C1=CN(c2ccc(F)cc2)C=C(C(=O)OC)C1c1ccc([N+](=O)[O-])cc1	0.1	0.2	6.3	-5	nt	?	16	7.3
CCOc1ccc(C(N)=O)cc1OC	-1.3	-2.3	nt	0	-5%	-9	-3	2.5
Nc1nc(CN2CCN(c3ccccn3)CC2)nc(Nc2ccc(F)cc2)n1	nt	?	nt	92*	?	-11	2	12
Cc1c(C)c2cc(Cl)c(OCC(=O)NCCCn3ccnc3)cc2oc1=O	-0.2	-0.3	-12	-23	nt	1	0	0.7
O=S(=O)(NCc1c(Cl)cccc1Oc1ccccc1)c1ccc(F)cc1	-0.1	-1.7	-8.1	26	nt	26	3	-1.3
O=C(NCc1ccco1)C1CC(c2ccc(F)cc2)=NO1 (stereo not drawn)	0.0	0.3	-23	4	-3%	6	-9	-7.1
